CRFR2-BP antag: CRF-BP/CRF-R2 complex antagonism; hit rate 0.59% among 350,000; HEK293 CRF-R2/CRF-BP, CRF-induced calcium fluorescence; AID 588475; inhibition, % at 11.8 µM;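 active = inhibition of the ligand-induced calcium signal above about 50% at the single tested concentration, limit read from the data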
CHRM5 agonist: agonists of human muscarinic M5 receptor (CHRM5); AID 624037; CHO-K1 hM5 cells, Fluo-8 calcium fluorescence; 0% DMSO wells, 100% maximal acetylcholine response; hit rate 0.19% among 360,000; activation, % at 3 µM;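 active = activation above the run's mean over test compounds plus 3 SD, cut at about 23% in these data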;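 note: signal is peak over basal fluorescence ratio across the kinetic read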
Target sequence (P08912 whole entry, looked up): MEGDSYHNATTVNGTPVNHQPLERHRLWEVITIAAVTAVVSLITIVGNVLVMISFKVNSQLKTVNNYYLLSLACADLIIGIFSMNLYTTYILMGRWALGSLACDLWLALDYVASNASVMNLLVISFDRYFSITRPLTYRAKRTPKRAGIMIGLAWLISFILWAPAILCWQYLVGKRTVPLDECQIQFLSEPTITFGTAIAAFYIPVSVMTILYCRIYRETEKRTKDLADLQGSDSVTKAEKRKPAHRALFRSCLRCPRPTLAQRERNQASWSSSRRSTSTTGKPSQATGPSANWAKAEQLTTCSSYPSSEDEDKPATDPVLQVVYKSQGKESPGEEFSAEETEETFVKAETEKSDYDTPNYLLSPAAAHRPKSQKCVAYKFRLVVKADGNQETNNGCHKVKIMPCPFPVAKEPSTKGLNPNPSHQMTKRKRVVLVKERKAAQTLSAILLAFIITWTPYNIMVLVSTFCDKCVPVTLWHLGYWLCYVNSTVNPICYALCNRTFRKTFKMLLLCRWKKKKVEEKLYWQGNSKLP
CRFBP-R2 agonist: agonists of human CRF-binding protein/CRF-R2 receptor complex; activation, % at 13.2 µM; HEK293 CRF-R2/CRF-BP, calcium dye fluorescence (FLIPR); percent of saturating CRF peptide response; hit rate 0.46% among 350,000;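 active = activation of at least 50%, plus an integration ratio under a set limit after plate pattern correction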;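 note: plate controls were neutral control wells without compound for no effect and CRF at EC100 for full effect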
M5 antag: blocks acetylcholine activation of human M5 receptor; P08912; CHO-hM5 cells, Fluo-8 calcium fluorescence, ACh EC80; inhibition, % at 3 µM; hit rate 0.59% among 360,000; AID 624040;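 active = inhibition above a per-plate cutoff, the mean of that plate's test compounds plus 3 SD, cut at about 27% in these data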;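 note: 0% = acetylcholine EC80 with DMSO and 100% = DMSO without agonist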
CHRM5 PAM: CHRM5 positive allosteric modulation; CHO-K1 hM5, Fluo-8 calcium, ACh EC20 PAM; 0% = ACh EC20, 100% = ACh EC100; activation, % at 3 µM; hit rate 0.3% among 360,000; AID 624038;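 active = activation above the run cutoff, the mean activation of all test compounds plus 3 SD, cut at about 18% in these data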
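System: CHO-K1 cell line with stable human muscarinic M5 receptor expression | Also added: EC20 acetylcholine as agonist stimulus | Compound: One concentration, 3 µM final (nominal) | Timing: Fluo-8 loading 80 min at 37 °C plus 30 min room temperature | Measured by: Fluo-8 calcium dye fluorescence, kinetic read | Read-out basis: % activation, ACh-normalized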
Numbers without * were called inactive; i = inactive; & = joins results of further samples. Not all compounds are listed, so the mix of outcomes need not match the whole.

1	COC(=O)[C@@H]1[C@H]2C[C@H]3c4[nH]c5ccccc5c4CCN3C[C@@H]2CC[C@@H]1O
2	N=C(N)c1ccc(OCCCCCOc2ccc(C(=N)N)cc2)cc1
3	COc1ccc2c3c1O[C@H]1C[C@@H](O)C=C[C@@]31CCN(C)C2
4	O=C(O)c1cc(-c2ccccc2)nc2ccccc12
5	CCCCC1(COC(=O)CCC(=O)O)C(=O)N(c2ccccc2)N(c2ccccc2)C1=O
6	CC(CN(C)C)CN1c2ccccc2CCc2ccccc21 (stereo unspecified)
assay / entry	1	2	3	4	5	6
CRFR2-BP antag	0.7&-11.8	20.4	12.4	-8.5	6.5	-44.9
CHRM5 agonist	-0.7	-1.6	0.4	1.6	0.1	-0.1
CRFBP-R2 agonist	-1.0&9.4	1.6	-0.7	1.5	5.4	22.9
M5 antag	0.2	6.3	4.2	-5.3	4.2	98.7*
CHRM5 PAM	1.3	-7.5	1.7	-2.0	-0.7	-18.8

7	CC(C)NCC(O)COc1cccc2ccccc12 (stereo unspecified)
8	CCCCCC(O)C=CC1C(O)CC(O)C1CC=CCCCC(=O)O (stereo unspecified)
9	Cc1cccc(CN2CCN(C(c3ccccc3)c3ccc(Cl)cc3)CC2)c1 (stereo unspecified)
10	O=S(=O)(O)c1cc(O)ccc1O
11	CC(=O)O[C@H]1C(=O)[C@@]2(C)[C@H]([C@H](OC(=O)c3ccccc3)[C@]3(O)C[C@H](OC(=O)[C@H](O)C(NC(=O)c4ccccc4)c4ccccc4)C(C)=C1C3(C)C)[C@]1(OC(C)=O)CO[C@@H]1C[C@@H]2O (stereo partly specified)
12	C[C@H](CCC(=O)O)[C@H]1CC[C@H]2[C@@H]3CC[C@@H]4C[C@H](O)CC[C@]4(C)[C@H]3C[C@H](O)[C@]12C
assay / entry	7	8	9	10	11	12
CRFR2-BP antag	i	-14.2	26.5	-15.9	19.6	14.0&26.5&11.5
CHRM5 agonist	1.5	1.7	-1.1	36.2*	8.3	0.6&0.7&2.4
CRFBP-R2 agonist	i	-1.1	9.6	-1.5	-0.1	-0.5&0.1&-0.8
M5 antag	-6.1	3.5	-13.2	-9.9	0.5	5.8&4.1&-1.9
CHRM5 PAM	11.1	0.9	-5.1	-13.4	0.8	-6.0&-2.6&-0.7

8 of these compounds in another layout.
# | structure | CRFR2-BP antag | CHRM5 agonist | CRFBP-R2 agonist | M5 antag | CHRM5 PAM
1 | COC(=O)[C@@H]1[C@H]2C[C@H]3c4[nH]c5ccccc5c4CCN3C[C@@H]2CC[C@@H]1O | 0.7&-11.8 | -0.7 | -1.0&9.4 | 0.2 | 1.3
2 | N=C(N)c1ccc(OCCCCCOc2ccc(C(=N)N)cc2)cc1 | 20.4 | -1.6 | 1.6 | 6.3 | -7.5
3 | COc1ccc2c3c1O[C@H]1C[C@@H](O)C=C[C@@]31CCN(C)C2 | 12.4 | 0.4 | -0.7 | 4.2 | 1.7
4 | O=C(O)c1cc(-c2ccccc2)nc2ccccc12 | -8.5 | 1.6 | 1.5 | -5.3 | -2.0
5 | CCCCC1(COC(=O)CCC(=O)O)C(=O)N(c2ccccc2)N(c2ccccc2)C1=O | 6.5 | 0.1 | 5.4 | 4.2 | -0.7
6 | CC(CN(C)C)CN1c2ccccc2CCc2ccccc21 (stereo unspecified) | -44.9 | -0.1 | 22.9 | 98.7* | -18.8
7 | CC(C)NCC(O)COc1cccc2ccccc12 (stereo unspecified) | i | 1.5 | i | -6.1 | 11.1
8 | CCCCCC(O)C=CC1C(O)CC(O)C1CC=CCCCC(=O)O (stereo unspecified) | -14.2 | 1.7 | -1.1 | 3.5 | 0.9

Going on with the list:
13	CN1C(CCl)Nc2cc(Cl)c(S(N)(=O)=O)cc2S1(=O)=O (stereo unspecified)
14	C[C@@H]1C[C@H]2[C@@H]3C[C@H](F)C4=CC(=O)C=C[C@]4(C)[C@@]3(F)[C@@H](O)C[C@]2(C)[C@@]1(O)C(=O)CO
15	O=C(O)COCCN1CCN([C@H](c2ccccc2)c2ccc(Cl)cc2)CC1
16	OCCN1CCN(CC/C=C2/c3ccccc3Sc3ccc(C(F)(F)F)cc32)CC1
17	O=C(OCc1ccccc1)c1ccccc1
18	Cc1[nH]c(=O)c(C#N)cc1-c1ccncc1
19	CC(C)(C(=O)O)c1ccc(C(O)CCCN2CCC(C(O)(c3ccccc3)c3ccccc3)CC2)cc1 (stereo unspecified)
20	CCC(=O)OCC(=O)[C@@]1(OC(=O)CC)[C@@H](C)C[C@H]2[C@@H]3CCC4=CC(=O)C=C[C@]4(C)[C@@]3(Cl)[C@@H](O)C[C@@]21C
assay / entry	13	14	15	16	17	18	19	20
CRFR2-BP antag	0.4	-7.1	i	-12.6	1.9	-9.5	i	-6.1
CHRM5 agonist	3.6	1.7	1.1	0.8	1.9	-0.2	0.2	-1.0
CRFBP-R2 agonist	-0.9	-1.3	i	-1.0	0.2	2.4	i	2.2
M5 antag	14.5	-7.3	-4.0	8.7	0.8	-5.8	-3.7	3.0
CHRM5 PAM	3.8	1.5	1.2	-6.2	-2.7	-2.3	-0.2	-9.7
